# T cruzi repl: T. cruzi replication inhibition; inhibition, % (concentration not given with the values); 300,000 tested, 1.4% active; AID 1885; T. cruzi beta-gal in NIH3T3, luminescence, 90 h;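 active = mean inhibition across valid replicates above about 55%, limit read from the data; inconclusive = mean below that limit but half or more replicates reach it; inactive = mean below it, under half of replicates reach it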;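 also: signal also drops with host cell toxicity which is not excluded here; 0% = plate median of DMSO wells and 100% = zero luminescence signal; higher percent means less beta-gal luminescence so fewer parasites; stock transfer was 50 nL into about 50 µL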
# A1 inh: inhibitors of the anti-apoptotic protein A1, read as caspase activation; MEF A1-2A-BIM cells, Caspase-Glo 3/7 luminescence, 3 h; percent of clofoctol response, vehicle zero; caspase activation, % (concentration not given with the values); 330,000 tested, 0.066% active;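 active = over half of replicate activation scores above 10%, or exactly half above 10 with the replicate mean above 10; inconclusive = replicate mean below 10 yet half the replicates above 10; inactive = over half of replicates below 10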;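 also: wells of about 30 µL received 50 nL stock; many hits fall short of the cut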
# * = called active by the depositor; ? = inconclusive; . = not tested or not shown. An excerpt, so the mix of outcomes need not match the whole.
1: O=C1CN(S(=O)(=O)c2ccc(F)cc2)CC(=O)N1CCc1ccccc1
2: Cc1cc(C)c2nc3s/c(=C/c4ccc5c(c4)n(C)c(=O)n5C)c(=O)n3c2c1
3: CCOC(=O)C1=C(C)OC(N)=C(C#N)C1c1c(C)nn(-c2ccc(C)cc2)c1Cl (centres undefined)
4: COc1ccc(C(=O)N2CCc3cc(OC)c(OC)cc3C2c2cccc([N+](=O)[O-])c2)cc1 (centres undefined)
5: CCc1c(C)nc2cc(-c3cccs3)[nH]n2c1=O
6: O=[N+]([O-])c1cc(/C=N\Nc2nccs2)ccc1O
Compound	1	2	3	4	5	6
T cruzi repl	-20.5	-17.2	-16.8	-2.6	10.1	9.4
A1 inh	.	.	.	.	.	.

7: COc1ccc(O[C@H]2C=C[C@@H](c3ccccc3)O[C@@H]2COC(=O)CC/C(C)=N/O[C@@H](C)c2cc(-c3c(C)cc(C)cc3C)no2)cc1
8: COc1cc2c(=O)nc3n(c2cc1OC)C(c1ccccc1)N=C(N)N3 (centres undefined)
9: CCOC(=O)c1cnc(-n2nc(C)cc2C)nc1Nc1ccc(C)cc1
10: O=C(Cn1ncc2c(=O)oc3ccccc3c21)Nc1nc2ccccc2s1
11: Cc1noc(C)c1CSc1ncnc2sc3c(c12)CCC3
12: CC1CCC/C(=N\NC(=O)COc2ccc(Cl)cc2Cl)C1 (centres undefined)
Compound	7	8	9	10	11	12
T cruzi repl	-12.5	-4.1	10.3	4.1	0.6	1.4
A1 inh	.	.	.	.	.	.

13: COc1cc(/C=N\Nc2ccc([N+](=O)[O-])cc2)ccc1OCC(=O)Nc1ccc(C)c(C)c1
14: O=c1[nH]c(-c2ccc(Cl)cc2)nc2c1cnn2-c1ccccc1
15: CCC(=O)N1CCN(c2ccc(NC(=O)c3ccc(-c4ccccc4)cc3)cc2)CC1
16: Brc1c(NC2=NCCN2)ccc2nccnc12
17: CCOC(=O)c1c(C)[nH]c(C=Nc2ccccc2)c1O
18: COC(=O)C1=C(C)N=c2s/c(=C3\C(=O)Nc4ccccc43)c(=O)n2C1c1ccccc1 (centres undefined)
Compound	13	14	15	16	17	18
T cruzi repl	4.3	4.7	2.3	4.3	1.2	30.2
A1 inh	.	.	.	.	.	.

# An excerpt of these results, as labelled records:
[11] Cc1noc(C)c1CSc1ncnc2sc3c(c12)CCC3
  T cruzi repl: 0.6 | A1 inh: .

[12] CC1CCC/C(=N\NC(=O)COc2ccc(Cl)cc2Cl)C1 (centres undefined)
  T cruzi repl: 1.4 | A1 inh: .

# Further entries:
19: CC1(C)CCCN(C(=O)c2coc(=O)c(Br)c2)C1
20: c1nnc2c3c4c(sc3ncn12)CCCC4
21: Cc1cc(C)nc(Nc2n[nH]c(COc3cccc4ccccc34)n2)n1
22: CCN1C(=O)/C(=c2\o/c(=C3\C=Cc4ccccc4N3CC)c(=O)n2CC)SC1=S
23: S=C1NC2(CCS1)Oc1ccccc1C1CC(c3ccccc3)=NN12 (centres undefined)
24: Cc1nn(Cc2c(F)c(F)c(F)c(F)c2F)c(C)c1NC(=O)c1ccc(COc2ccccc2Cl)cc1
Compound	19	20	21	22	23	24
T cruzi repl	-13.8	-1.1	-12.0	-31.5	-3.9	27.9
A1 inh	.	.	.	.	.	.

25: Cc1ccc2[nH]c3c(N4CCCCCC4)ncnc3c2c1
26: COc1ccc(C2C(C(C)=O)=C(C)N=c3s/c(=C/c4ccc5c(c4)OCO5)c(=O)n32)cc1 (centres undefined)
27: CCNC(=O)[C@@H]1CCCN1C(=O)[C@H](CCCN=C(N)N)NC(=O)[C@H](CC(C)C)NC(=O)[C@@H](CC(C)C)NC(=O)[C@H](Cc1ccc(O)cc1)NC(=O)[C@H](CO)NC(=O)[C@H](Cc1c[nH]c2ccccc12)NC(=O)[C@H](Cc1cnc[nH]1)NC(=O)[C@@H]1CCC(=O)N1
28: O=C1c2ccccc2C(=O)N1/N=C/c1ccc(O)c(O)c1O
29: COc1ccccc1OCC(=O)Nc1nnc(-c2ccco2)s1
30: O=c1[nH]c(=S)[nH]c(O)c1N=Nc1ccc(-c2ccccc2)cc1[N+](=O)[O-]
Compound	25	26	27	28	29	30
T cruzi repl	38.3	12.6	-11.4	5.2	-6.8	-6.4
A1 inh	.	.	.	.	.	.

# Arranged by molar mass (smallest number first): some entries from above
30: O=c1[nH]c(=S)[nH]c(O)c1N=Nc1ccc(-c2ccccc2)cc1[N+](=O)[O-]
26: COc1ccc(C2C(C(C)=O)=C(C)N=c3s/c(=C/c4ccc5c(c4)OCO5)c(=O)n32)cc1 (centres undefined)
27: CCNC(=O)[C@@H]1CCCN1C(=O)[C@H](CCCN=C(N)N)NC(=O)[C@H](CC(C)C)NC(=O)[C@@H](CC(C)C)NC(=O)[C@H](Cc1ccc(O)cc1)NC(=O)[C@H](CO)NC(=O)[C@H](Cc1c[nH]c2ccccc12)NC(=O)[C@H](Cc1cnc[nH]1)NC(=O)[C@@H]1CCC(=O)N1
Compound	30	26	27
T cruzi repl	-6.4	12.6	-11.4
A1 inh	.	.	.

# (more compounds)
31: Cc1cc(C(=O)CSc2nc3ccccc3c(=O)n2C)c(C)n1CC1CCCO1 (centres undefined)
32: CN(C)c1ccc(/C=c2\sc3nc(-c4ccccc4)nn3c2=O)cc1
33: C=CCn1c(SCC(=O)Nc2ccccc2OC)nnc1-c1ccco1
34: O=C(NCCc1ccc(F)cc1)c1cc(-c2ccncc2)nc2ccccc12
35: CC1CCC(NC(=O)CN2C(=O)C3CCCN3c3ncc(Cl)cc32)CC1 (centres undefined)
36: CCOCCCn1c(=N)c(C(=O)NCc2ccc3c(c2)OCO3)cc2c(=O)n3ccccc3nc21
Compound	31	32	33	34	35	36
T cruzi repl	35.9	-4.6	-6.1	-0.3	30.1	59.5*
A1 inh	.	.	.	.	.	.

37: COc1cc(/C=N/NC(=O)Nc2cccc3nsnc23)cc(OC)c1OC
38: Oc1c(Cl)cc(Cl)c2c1NCCC2
39: Cc1ccc(O)c(-c2cc(-c3ccccc3C)[nH]n2)c1
40: O=C(CSc1nnnn1C1CC2CCC1C2)Nc1ccnc2ccccc12 (centres undefined)
41: O=C(O)CCCNc1cc(N2CCC3(CC2)OCCO3)c2noc3c2c1C(=O)c1ccccc1-3
42: Cc1ccc(/C=N/n2c(C)nnc2C)s1
Compound	37	38	39	40	41	42
T cruzi repl	32.0	17.5	-3.6	.	.	-9.7
A1 inh	.	.	.	-1.1	-0.5	1.0

43: Cc1ccccc1C(=O)N/N=C/c1ccc([N+](=O)[O-])s1
44: CC(=O)NC1C(=O)SC1(C)C (centres undefined)
45: O=C(O)c1cccc2c1/C(=N/Nc1ccc([N+](=O)[O-])cc1[N+](=O)[O-])c1ccccc1-2
46: COc1cccc(/C=N/Nc2cc(-n3nc(C)cc3-c3ccccc3)ncn2)c1O
47: FC(F)(F)c1cccc(-n2cccc2/C=N/n2cnnc2)c1
48: CCN(CC)c1cnn(C/C(=N\OC)c2ccc(Cl)cc2)c(=O)c1Br
Compound	43	44	45	46	47	48
T cruzi repl	50.4	-19.9	-2.7	33.3	-5.5	18.2
A1 inh	0.1	0.4	-0.2	0.5	0.4	-0.2

49: COc1cccc(NC(=O)N2CCCC2C(=O)NC2CC2)c1 (centres undefined)
50: Cc1ccccc1NC(=O)C(C)O/N=C/c1cccc([N+](=O)[O-])c1 (centres undefined)
51: O=[N+]([O-])c1ccc(/C=N/n2c(C3CCCCC3)n[nH]c2=S)cc1
52: O=C(N/N=C/c1cccc(C(F)(F)F)c1)C1CCN(c2ncc(C(F)(F)F)cc2Cl)CC1
53: C/C(CC(=O)Nc1ccccn1)=N\NC(=O)c1ccc2ccccc2c1
54: COc1ccc(CN2C(=O)c3ccccc3C(/C=N\OCc3ccc(C)cc3)C2=O)cc1 (centres undefined)
Compound	49	50	51	52	53	54
T cruzi repl	-8.6	-3.7	15.5	-8.5	3.7	16.1
A1 inh	-0.4	?	-0.4	-0.2	0.3	-0.1

# Of the compounds above, 5 have a thiophene ring, fused or not:
5: CCc1c(C)nc2cc(-c3cccs3)[nH]n2c1=O
11: Cc1noc(C)c1CSc1ncnc2sc3c(c12)CCC3
20: c1nnc2c3c4c(sc3ncn12)CCCC4
42: Cc1ccc(/C=N/n2c(C)nnc2C)s1
43: Cc1ccccc1C(=O)N/N=C/c1ccc([N+](=O)[O-])s1
Compound	5	11	20	42	43
T cruzi repl	10.1	0.6	-1.1	-9.7	50.4
A1 inh	.	.	.	1.0	0.1

# Additional structures follow.
55: Cc1cc(C)c(S(=O)(=O)c2ccccc2)c(OC(=O)c2c(Cl)cccc2Cl)n1
56: Cc1ccc(C(=O)O/N=C2\CCSc3ccc(C)cc32)cc1
57: COc1ccccc1NS(=O)(=O)c1cccc(C(=O)N/N=C(\C)c2ccc3c(c2)OCCO3)c1
58: Cc1ccc(SCC(=O)O/N=C(\N)c2cccnc2)cc1
59: Fc1ccc(Cn2nnc3ccccc32)cc1
60: O=C1C(=O)c2ccccc2C(O)=C1CCCCl
Compound	55	56	57	58	59	60
T cruzi repl	-9.1	-16.1	11.4	7.4	-14.6	12.6
A1 inh	1.0	0.6	-1.0	-0.3	0.6	-0.1

61: O=c1oc2ccccc2nc1/C=C(O)/C=C/c1ccc(F)cc1
62: O=C(COC(=O)[C@@H]1CC(O)CN1S(=O)(=O)c1ccccc1[N+](=O)[O-])Nc1ccc2ccccc2c1 (some centres undefined)
63: COCCCNC(=O)c1c(N)n(/N=C/c2cccnc2)c2nc3ccccc3nc12
64: COC(=O)c1ccc(Cl)c(NC(=O)CN(c2ccc(OC)c(OC)c2)S(C)(=O)=O)c1
65: C=CCSc1nncn1/N=C/c1ccc(OC)cc1
66: C=CCn1c(=O)/c(=C2/Sc3cc(OC)ccc3N2C)s/c1=C1\C(=O)N(CC)C(=S)N1C
Compound	61	62	63	64	65	66
T cruzi repl	-20.2	-0.6	1.0	-9.1	-5.9	23.4
A1 inh	-0.1	0.3	0.4	0.4	-0.9	0.7

67: CCc1nnc(N/N=C/c2cccs2)n1N
68: N#Cc1cc(NC(=O)c2ccc(F)cc2)c(=O)n2c1[nH]c1ccccc12
69: COC(=O)CCC(=O)NC(=S)Nc1sc(C)c(C)c1C(N)=O
70: O=S(=O)(c1cnccc1N1CCN(/N=C/c2ccc(Br)cc2)CC1)N1CCCCC1
71: CCOc1cc(/C=N/NS(=O)(=O)c2ccc(OC)cc2)ccc1OCCN1CCOCC1
72: C/C(=N\N=C(c1ccccc1)c1ccccc1)c1cccs1
Compound	67	68	69	70	71	72
T cruzi repl	-15.2	-18.1	-27.0	35.9	-11.5	15.2
A1 inh	-0.1	0.0	-0.3	-0.1	1.0	-0.1

73: COCCNC(=S)N/N=C(\C)c1ccc(O)cc1
74: CC(C)(C)NC(=O)/C=N/O
75: C/C(=N\Nc1ccc(Cl)c(Cl)c1)c1ccc(-n2ccnc2)cc1
76: Cc1ccc(NC(=O)OCc2cccs2)cc1
77: Cc1cc(C)n(/N=C/c2cccc([N+](=O)[O-])c2)c(=O)c1
78: CC/C(=N\NS(C)(=O)=O)c1ccccc1
Compound	73	74	75	76	77	78
T cruzi repl	-20.0	-17.9	18.3	4.7	2.2	-11.2
A1 inh	0.0	-0.5	1.8	-2.8	1.7	0.8

79: CC1CCCC(=C\c2ccccc2)/C1=N/O (centres undefined)
80: Cc1nc2cc(-c3ccsc3-n3c(C)ccc3C)[nH]n2c(=O)c1Cl
81: Cc1cc(Nc2ccc(Cl)cc2)n2nnnc2n1
82: Cc1ccc(S(=O)(=O)N/N=C/c2cccc([N+](=O)[O-])c2)cc1
83: Cc1ccc(C(=O)O/N=C/C2=C(Cl)c3ccccc3CC2)cc1
84: CC(/C=C/c1ccccc1)=N\Nc1nc2c(c(=O)[nH]c(=O)n2C)n1CCO
Compound	79	80	81	82	83	84
T cruzi repl	1.5	-3.4	10.8	-16.9	0.2	17.2
A1 inh	0.5	0.4	-0.3	0.0	-0.1	0.1

85: O=C1N/C(=C\c2nc3ccccc3s2)c2ccccc21
86: CC(C)Oc1ccc(/C=N/NC(=O)C2CCCN2S(=O)(=O)c2ccc(Cl)cc2)cc1 (centres undefined)
87: Cc1ccc(/C=N/n2nnnc2N)o1
88: COc1cccc(/C=N\NC(=O)C2C(=O)NCC2c2ccccc2)c1O (centres undefined)
89: O=S1(=O)N=C(N/N=C/c2ccccn2)c2ccccc21
90: Cc1ccn(CC(=O)N/N=C/c2cc([N+](=O)[O-])ccc2O)n1
Compound	85	86	87	88	89	90
T cruzi repl	-19.1	1.6	-14.9	-9.7	-6.7	-0.3
A1 inh	-8.2	-1.4	-0.4	0.2	0.6	-2.8

91: CC(=O)Nc1ccc(NC(=O)C/C(C)=N/NC(=O)C(=O)N2CCCC2)cc1
92: COc1ccc(N/N=C(/Oc2ccc([N+](=O)[O-])cc2)C(C)=O)cc1
93: COc1ccc(-c2c(C#N)c(SCc3c(C)noc3C)nc3c2C(=O)CC(C)(C)C3)cc1
94: O=C1NC(c2ccc(Br)cc2)=N/C1=C/c1ccco1
95: O=C(NNc1ccccc1)C(=O)N1CCCCC1
96: CC(=O)Nc1ccc(OS(=O)(=O)c2ccc(C(C)(C)C)cc2)cc1
Compound	91	92	93	94	95	96
T cruzi repl	-12.8	5.8	42.0	-4.3	24.8	14.9
A1 inh	-0.9	0.0	0.0	-1.3	1.0	0.1

# Compound activity as filed in PubChem.
